Bioassay records: PubChem, National Center for Advancing Translational Sciences (NCATS)
AmpC nodet inh: blocks E. coli AmpC beta-lactamase in absence of detergent. P00811. actives 1.8% (n = 71,000). Potency, µM (series often up to 28.7 µM), without a hit: at the highest dose activity change, negative = inhibition. AmpC nitrocefin hydrolysis, absorbance 480 nm, no detergent; potencies from a single point are estimates; active = falling curve, for most hits resting on a single point; inconclusive = weak or doubtful change; inactive = flat or rising curve; further: % of control where 0% means no effect; about half of the hits show no inhibition at the top dose; a quarter of the inactives give rising signals
Target sequence (P00811 whole entry, looked up): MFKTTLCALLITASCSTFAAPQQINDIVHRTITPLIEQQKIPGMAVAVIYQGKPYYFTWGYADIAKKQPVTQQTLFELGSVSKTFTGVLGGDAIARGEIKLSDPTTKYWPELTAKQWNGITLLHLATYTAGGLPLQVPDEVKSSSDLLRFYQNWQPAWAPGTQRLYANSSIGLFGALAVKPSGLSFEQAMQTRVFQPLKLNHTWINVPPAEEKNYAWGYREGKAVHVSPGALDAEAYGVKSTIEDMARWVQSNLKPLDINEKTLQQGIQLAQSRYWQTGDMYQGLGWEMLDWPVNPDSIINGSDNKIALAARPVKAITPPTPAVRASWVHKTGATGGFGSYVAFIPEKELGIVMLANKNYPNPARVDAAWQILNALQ
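Enzyme, pH 7.0 phosphate. Compound titrations were pre-incubated with AmpC for 15 min at room temperature before nitrocefin (stock 800 uM) addition; product formation was recorded at 480 nm every 20 s for 4 min.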
Active calls of the source: *; ? = inconclusive; ! = not active in a repeat; [ ] = dose if it differs, or a comment. Potency means the concentration at half of the fitted maximal effect. This is a subset; rates above refer to the full screens.

SMILES	AmpC nodet inh
O=C(CSc1nc(NS(=O)(=O)c2ccccc2)cc(=O)[nH]1)Nc1ccc(F)cc1	-12%
C[N+](C)(C)c1ncnc2c1ncn2[C@@H]1C[C@H](O)[C@@H](CO)O1	2%[5.75 µM]
CC#CCCC(=O)N1C=Cc2ccccc2C1C#N (centres undefined)	1%
Nc1nc(SCc2ccc([N+](=O)[O-])cc2)c2ncn([C@@H]3O[C@@H](CO)[C@@H](O)[C@H]3O)c2n1	-8%
Cc1nn(S(=O)(=O)N2CCCCC2)c(C)c1Br	1%
O=C(C1=C(O)C(=O)N(Cc2ccco2)C1c1cccnc1)c1cc2ccccc2o1 (centres undefined)	-14%
NC(N)=N[C@@H]1C(O)[C@H](N=C(N)N)[C@@H](O)C(O)[C@H]1O (some centres undefined)	0%[5.75 µM]
O=c1[nH]cnc2sc3c(c12)CCCC3	-15%
CN(CC(=O)Nc1ccc2c(c1)OCCO2)S(=O)(=O)c1ccc(Br)s1	-14%
COc1cccc(C2CC(c3ccccc3)Nc3ncnn32)c1 (centres undefined)	23%
CCC(=NCc1ccco1)c1c(O)n(-c2ccc(OC)cc2)c(=O)[nH]c1=O	3%
COc1ccc(CN2C(=O)CN=C2Nc2cccc(C)c2C)cc1	21%
Cc1cccc2cc(CN(Cc3ccco3)C(=O)N3CCCC3)c(=O)[nH]c12	40%
N#CCc1nnc2n1-c1ccccc1CCC2	-10%
O=C(CSc1nc(O)cc(=O)[nH]1)Nc1ccc2c(c1)CCC2	?
COC(=O)CCc1nc2ccccc2[nH]c1=O	-5%
Clc1ccccc1Cn1nnc2c(N3CCCC3)ncnc21	78%
Cc1cc(C(=O)NCCN2CCCCC2C)n(-c2ccccc2)n1 (centres undefined)	-14%
CCn1c(SCC(=O)Nc2nonc2C)nnc1-c1ccco1	-12%
CCOC(=O)c1ccc(Oc2c(C)oc3c(CN4CCN(C)CC4)c(O)ccc3c2=O)cc1	69%
c1csc(-c2nnc3ccccn23)c1	-7%
Cc1cccc(-n2nnc(C(=O)NC3CCCc4ccccc43)c2N)c1 (centres undefined)	7%
CC(C)c1ccc(OCC(=O)NCc2ccco2)cc1	10%
C[C@@H]1CC2(OC3C[C@@]4(C)C5=CC[C@H]6C(C)(C)C(O[C@@H]7OC[C@@H](O)[C@H](O)[C@H]7O)CC[C@@]67C[C@@]57CC[C@]4(C)C31)OC(O)C1(C)OC21 (some centres undefined)	100%
O=C(Cn1cnc2c(nnn2Cc2ccc(F)cc2)c1=O)OCc1ccccc1	1%
Cc1cc2ncn(S(=O)(=O)N3CCOCC3)c2cc1C	38%
CCCN1C(=O)C(NC(C)=O)c2cc(OC)ccc21 (centres undefined)	-5%
Cc1c(N=Cc2ccc(-c3ccc(Cl)cc3)o2)c(=O)n(-c2ccccc2)n1C	44%
CCOC(=O)C1C2C=CC3(CN(C4CCCC4)C(=O)C13)O2 (centres undefined)	-2%
CCOC(=O)Cc1nnc(NC(=O)Nc2ccccc2)s1	-11%
O=C(NCc1ccc2c(c1)OCO2)c1cc(-n2cnnc2)ccc1Cl	88%
Nc1nc(SCC(=O)Nc2ccc(Br)cc2F)n[nH]1	-21%
COc1ccc(C(C)(C)C)cc1NC(=O)c1c(C)noc1C	27%
O=C(CCCCCn1c(SCc2ccncc2)nc2ccccc2c1=O)NCc1ccco1	90%
O=C(CCCN1C(=O)c2ccccc2C1=O)Nc1sc2c(c1C(=O)NCc1ccco1)CCC2	37%
Cc1nn(-c2nc3ccccc3s2)c(C)c1Oc1ccccc1O	-24%
Cc1nc2ccc(NC(=O)N3CCC(c4ccccc4)C3)cc2nc1C (centres undefined)	121%
CCOC(=O)c1c(CN2CCN(c3ccccc3)CC2)oc2ccc(O)cc12	44%
COc1ccccc1NC(C)=O	-11%
COc1ccc(CN2CCN(C(=O)CC(C)C)CC2)c(OC)c1OC	30%
Cc1cc(N2CC34C=CC(O3)C(C(=O)O)C4C2=O)no1 (centres undefined)	4%
COc1cccc(OC)c1C(=O)N1CCN(S(=O)(=O)c2ccccc2)CC1	36%
NC(N)=Nc1ccc2[nH]c3c(c2c1)C[C@]1(O)[C@@H]2Cc4ccc(O)c5c4[C@]1(CCN2CC1CC1)[C@H]3O5	-4%
Cc1ccc(/C=c2/sc3nnc(-c4ccccc4Cl)n3c2=O)o1	-21%
CN(C)c1ccnc2sc3c(=O)n(Cc4ccccc4)cnc3c12	26%
CCOC(=O)c1cc2c(=O)n3ccccc3nc2n(Cc2ccco2)c1=NC(=O)c1cccnc1	90%
Oc1cc(O)cc(/C=C\c2ccc(O)c(O)c2)c1	-23%
CCn1c(SCc2ccc(OC)cc2)nnc1-c1ccncc1	58%
CC1CCCCC1NC(=O)COc1ccc(-n2cnnn2)cc1 (centres undefined)	4%
Cc1nc(N2CCN(C)CC2)[nH]c(=O)c1Cc1cccc2ccccc12	88%

Next part:
SMILES	AmpC nodet inh
O=c1c2[nH]c3cccc(Cl)c3c2ncn1Cc1ccncc1	-5%
CCN(CC)C(=O)CSc1nsc(SCC(=O)N(CC)CC)c1C#N	-4%
O=C(NCc1cccs1)C1CC(=O)N(C2CCCC2)C1 (centres undefined)	5%
CCOCCCn1c(=S)[nH]c2cc(C(=O)N3CCOCC3)ccc2c1=O	8%
CSc1cccc(NS(=O)(=O)c2cccs2)c1	3%
C=CCc1c(C)nc2c(C(=O)O)cnn2c1C	-4%
CCC(=O)NC(C)c1nc2ccccc2n1C (centres undefined)	-16%
Cc1ccc(OCc2nc(C#N)c(NCc3ccc4c(c3)OCO4)o2)cc1	-4%
CC(C)NS(=O)(=O)c1ccc(OCC(N)=O)c(Cl)c1	15%
CCCCOc1ccc(C(=O)NCCCC(=O)N2CCCCC2)cc1	86%

23 of these compounds in another layout:
SMILES | AmpC nodet inh
CCC(=NCc1ccco1)c1c(O)n(-c2ccc(OC)cc2)c(=O)[nH]c1=O | 3%
COc1ccc(CN2C(=O)CN=C2Nc2cccc(C)c2C)cc1 | 21%
Cc1cccc2cc(CN(Cc3ccco3)C(=O)N3CCCC3)c(=O)[nH]c12 | 40%
N#CCc1nnc2n1-c1ccccc1CCC2 | -10%
O=C(CSc1nc(O)cc(=O)[nH]1)Nc1ccc2c(c1)CCC2 | ?
COC(=O)CCc1nc2ccccc2[nH]c1=O | -5%
Clc1ccccc1Cn1nnc2c(N3CCCC3)ncnc21 | 78%
Cc1cc(C(=O)NCCN2CCCCC2C)n(-c2ccccc2)n1 (centres undefined) | -14%
CCn1c(SCC(=O)Nc2nonc2C)nnc1-c1ccco1 | -12%
CCOC(=O)c1ccc(Oc2c(C)oc3c(CN4CCN(C)CC4)c(O)ccc3c2=O)cc1 | 69%
c1csc(-c2nnc3ccccn23)c1 | -7%
Cc1cccc(-n2nnc(C(=O)NC3CCCc4ccccc43)c2N)c1 (centres undefined) | 7%
CC(C)c1ccc(OCC(=O)NCc2ccco2)cc1 | 10%
C[C@@H]1CC2(OC3C[C@@]4(C)C5=CC[C@H]6C(C)(C)C(O[C@@H]7OC[C@@H](O)[C@H](O)[C@H]7O)CC[C@@]67C[C@@]57CC[C@]4(C)C31)OC(O)C1(C)OC21 (some centres undefined) | 100%
O=C(Cn1cnc2c(nnn2Cc2ccc(F)cc2)c1=O)OCc1ccccc1 | 1%
Cc1cc2ncn(S(=O)(=O)N3CCOCC3)c2cc1C | 38%
CCCN1C(=O)C(NC(C)=O)c2cc(OC)ccc21 (centres undefined) | -5%
Cc1c(N=Cc2ccc(-c3ccc(Cl)cc3)o2)c(=O)n(-c2ccccc2)n1C | 44%
CCOC(=O)C1C2C=CC3(CN(C4CCCC4)C(=O)C13)O2 (centres undefined) | -2%
CCOC(=O)Cc1nnc(NC(=O)Nc2ccccc2)s1 | -11%
O=C(NCc1ccc2c(c1)OCO2)c1cc(-n2cnnc2)ccc1Cl | 88%
Nc1nc(SCC(=O)Nc2ccc(Br)cc2F)n[nH]1 | -21%
COc1ccc(C(C)(C)C)cc1NC(=O)c1c(C)noc1C | 27%

(next part)
SMILES	AmpC nodet inh
Cc1sc2ncn(CC(=O)NCc3ccccn3)c(=O)c2c1S(=O)(=O)N1CCOCC1	0%
CN1CCN(c2nc(-c3cccc(C#N)c3)nc3ccccc23)CC1	64%
CCN1CCCC1CNC(=O)CN1C(=O)COc2ccc(C)cc21 (centres undefined)	-2%
NC12CN3CN(CN(C3)C1)C2 (tested in a mixture with another compound)	-14%
Cc1cc2oc(=O)cc(COC(=O)c3cccc(N(C)C)c3)c2cc1C	-13%
CCCCC(c1nnnn1C1CCCC1)N1CCN(C(=O)c2ccco2)CC1 (centres undefined)	59%
Nc1nncn1C(=O)CCc1ccccc1	8%
Cc1cc(N2CCC(C)CC2)nc(-n2nc(C)cc2C)n1	67%
CCOC(=O)c1cn(CC(=O)Nc2ccc(C)cc2)nn1	1%
O=C(Nn1c(=S)[nH]c2ccccc2c1=O)c1ccncc1	-1%
Cc1cccc(NC(=O)NCC(c2cccnc2)N2CCOCC2)c1 (centres undefined)	2%
CCC(C)NC(=O)c1n[nH]c(=O)c2ccccc12 (centres undefined)	0%
O=C(Nc1ccncc1)Nc1ccc(F)cc1F	-5%
Cc1ccc(-c2nnn(CC(=O)N(Cc3cccs3)C(C(=O)NC3CCCC3)c3ccco3)n2)o1 (centres undefined)	-7%
CCc1ccc(CCC(=O)Nc2ccc(S(N)(=O)=O)cc2)o1	-11%
CCOC(=O)C1C(C)=CC(=O)CC1c1ccco1 (centres undefined)	0%
O=C(NCC(=O)N(c1ccc2c(c1)OCO2)C(C(=O)NC1CCCC1)c1ccncc1)c1ccco1 (centres undefined)	31%
CCCCN1C(=O)C(NC(C)=O)c2cc(Br)ccc21 (centres undefined)	62%
CC(=O)N1C(C(=O)O)CSC1c1cccc(C)c1 (centres undefined)	-14%
COCCOC(=O)C1=C(C)NC(=O)NC1c1ccc(OC(=O)c2ccco2)c(OC)c1 (centres undefined)	33%
Cc1ccc(-c2nc(CS(=O)(=O)CC(=O)NCCCN3CCN(C)CC3)c(C)o2)cc1	54%
Cc1sc2nc(SCc3nc4ccccc4[nH]3)n(Cc3ccco3)c(=O)c2c1C	-8%
CC(C)(C)c1ccc(C(=O)NCc2cccnc2)cc1	26%
COc1ccc(NS(=O)(=O)c2coc(C(N)=O)c2)cc1Cl	-16%
CSC([N-]/N=C/c1cccc(C)n1)=[S]=[Cu].CS[C@H]([S-])[N-]/N=C/c1cccc(C)n1	6%[5.75 µM]
CCCC(N)CCCCCC(=O)O (centres undefined)	-2%
COc1cc(OC)cc(C(=O)NCc2n[nH]c(=S)n2-c2ccccc2OC)c1	3%
O=S(=O)(NCc1ccccc1)c1cccc2nonc12	-1%
CC1(C)Oc2ccc3ccc(=O)oc3c2-c2cn[nH]c21	21%
Cc1ccc(-c2nnn(CC(=O)N(CC(=O)NCc3ccccc3)c3cccc(C)c3C)n2)o1	18%
CCOC(=O)c1oc2ccccc2c1CSc1nnnn1-c1ccc(OC)cc1	4%
CC(C)CO[C@H](c1ccc2c(c1)OCO2)[C@H](C)Br	8%[5.75 µM]
O=C(CN1C(=O)CSc2ncccc21)NCCN1CCOCC1	-1%
Cc1ccc2sc(NC(=O)CN3C(=O)CCC3=O)nc2c1C	16%
CC1CCCC(C)N1C(=O)CN1CCN(c2nc(-c3ccc(F)cc3)cs2)CC1 (centres undefined)	108%
Cc1nc2cc(C(F)(F)F)ccc2n1C1CCN(CC(=O)NC(C)(C)C)CC1	150%
CCOc1ccc(-n2c(=O)c3c(C)c(C)sc3n(CC(=O)NCc3ccco3)c2=O)cc1	0%
O=C1C2CCCN2C(c2ccc(Br)cc2)N1c1ccc(F)cc1 (centres undefined)	38%
O=C(Nc1ccc(N2CCOCC2)cc1)C1CC1	-6%
Cc1oc(-c2nc3ccccc3n2C)cc1C(=O)c1ccccc1	32%
Cc1n[nH]c(C)c1S(=O)(=O)N1CCc2ccccc21	-7%
Cn1cnnc1Sc1nc2c(c(=O)n(C)c(=O)n2C)n1C	-6%
CCOC(=O)c1ccccc1NC(=O)CN(c1ccccc1OCC)S(C)(=O)=O	98%
CCCCCC(C(=O)O)C(C)CC(=O)NC1CCCCC1 (centres undefined)	-8%
Cc1ccc(-c2nnc(SCC(=O)Nc3ccccc3N3CCOCC3)o2)cc1	64%
CSc1nnc(-c2ccncc2)n1CCCN1CCCC1=O	1%
CC1=C(C(=O)Nc2ccccc2Cl)C(c2ccc(N(C)C)cc2)NC(=O)N1 (centres undefined)	11%
c1ccc(COc2ccc(Nc3ncnc4nc[nH]c34)cc2)cc1	-7%
O=C1CC(c2ccc(F)cc2)Sc2ccccc2N1 (centres undefined)	8%
Fc1cccc(/C=N\N=C/c2cccc(F)c2)c1	12%

Next part.
SMILES	AmpC nodet inh
O=C(CSc1nnc(-c2cccs2)o1)N1CCCCC1	10%
COc1cccc(C2=NOC(C(=O)Nc3ccc(OC)c(OC)c3)C2)c1 (centres undefined)	55%
Cc1sc2nc(C(C)Nc3ccccc3N3CCOCC3)[nH]c(=O)c2c1C (centres undefined)	49%
COn1c(SCc2cccnc2)nc2ccccc2c1=O	12%
N#C/C(=C\c1ccc(O)c(O)c1)C(=O)NCCCc1ccccc1	0.2µM*!
O=C(NCCOC(=O)c1ccc(C(=O)OCCNC(=O)c2ccccc2)o1)c1ccccc1	24%
O=S(=O)(c1cccc2cccnc12)N1CCc2ccccc21	-2%
CCN1CCN(C(c2cc(OC)ccc2OC)c2nnnn2Cc2ccccc2)CC1 (centres undefined)	6%
NC([N-]/N=C/c1ccccn1)=[S]=[Fe].O=S(=O)(O)O	-2%[5.75 µM]
CC(CCc1ccccc1)NC(=O)C1CCN(c2nnc(-n3cccc3)s2)CC1 (centres undefined)	48%
COc1ccccc1NS(=O)(=O)c1cc(Cl)ccc1OC	9%
CCOC(=O)N1CCN(C(=O)C2CCN(S(=O)(=O)c3ccc(Br)s3)CC2)CC1	133%
CCOC(=O)CSc1nn(C)c(=S)s1	4µM*[single pt active]
O=C(Nc1cnc2ccccc2c1)N1CCOCC1	-11%
COc1cc(C)nc(N2CCC(C(=O)NC3CCCCC3)CC2)n1	43%
